Yeast UUG start: modulators of yeast start codon fidelity, primary screen, whole organism, S. cerevisiae, single point, plate reader. activity score, % at 18.7 µM. AID 602363, 2012. 350,000 compounds, 0.13% hits. S. cerevisiae UUG-firefly luciferase reporter, luminescence/redox ratio;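 active = replicate mean at a twofold rise or more, about +100% in these data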;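 also: firefly luciferase made from a UUG start codon reports start codon fidelity; reporter light over untreated wells divided by growth signal over untreated wells; some hits fall short of that in this replicate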
PABP polyA inh: PABP poly(A) RNA binding inhibitors, primary screen, biochemical, fluorescence polarization, uHTS | Polyadenylate-binding protein 1 (Homo sapiens), P11940 | 290,000 compounds, 1% hits | inhibition, % at 35 µM | AID 2014, 2009;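 active = 50% or more with normal probe brightness, or confirmed in later tests; inconclusive = above 50% with abnormal brightness, or retests that disagree; inactive = below 50% or failed in later tests; about a fifth of its hits are not listed in these tables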;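 also: calls also rest on retests at 20 µM and on dose response follow-up; controls were probe without protein and protein plus probe with vehicle; some compounds called inactive have numbers as strong as hits; many hits fall short of the cut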
Target sequence (P11940 whole entry, looked up): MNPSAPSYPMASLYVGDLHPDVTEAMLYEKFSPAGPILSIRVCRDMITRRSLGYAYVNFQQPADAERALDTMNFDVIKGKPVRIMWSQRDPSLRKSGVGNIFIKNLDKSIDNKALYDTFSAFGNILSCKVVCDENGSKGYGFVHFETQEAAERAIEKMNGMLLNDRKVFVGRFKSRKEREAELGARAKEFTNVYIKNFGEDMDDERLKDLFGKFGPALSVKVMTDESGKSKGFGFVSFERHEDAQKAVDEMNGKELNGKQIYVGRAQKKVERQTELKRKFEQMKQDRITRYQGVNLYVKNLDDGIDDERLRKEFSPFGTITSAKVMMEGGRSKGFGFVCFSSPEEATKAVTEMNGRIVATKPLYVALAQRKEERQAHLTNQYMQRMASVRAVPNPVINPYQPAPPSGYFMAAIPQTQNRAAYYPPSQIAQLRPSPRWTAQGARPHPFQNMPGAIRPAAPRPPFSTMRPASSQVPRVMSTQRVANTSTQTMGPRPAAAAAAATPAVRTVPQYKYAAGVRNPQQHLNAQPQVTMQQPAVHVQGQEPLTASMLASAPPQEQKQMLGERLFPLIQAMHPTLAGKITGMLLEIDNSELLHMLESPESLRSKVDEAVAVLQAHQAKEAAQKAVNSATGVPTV
HIV Env fusion: inhibitors of HIV-1 Env-driven cell-cell fusion, primary screen, HeLa-JRFL effector, CEM21 target cells, luciferase. 360,000 compounds, 1.1% hits. AID 651610, 2012. inhibition, % at 12.3 µM;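 active = mean replicate inhibition score of at least 50 and every replicate individually at or above 50; inconclusive = only one of the two criteria met; inactive = mean below 50 and not all replicates reaching 50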;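 also: 0% = plate neutral controls and 100% = maraviroc near 300 nM; one replicate is shown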
eIF4H inh: human eIF4H binding inhibitors, primary screen, translation initiation inhibitor project, biochemical, uHTS, fluorescence polarization; Eukaryotic translation initiation factor 4H (Homo sapiens), Q15056; eIF4H fluorescence polarization binding assay; inhibition, % at 35 µM; 290,000 compounds, 0.94% hits; AID 2012, 2009;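 active = 50% or more with normal probe brightness, or confirmed in later tests; inconclusive = above 50% with abnormal brightness, or retests that disagree; inactive = below 50% or failed in later tests; about a fifth of its hits are not listed in these tables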;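 also: calls also rest on retests at 20 µM and on dose response follow-up; 0% = protein and probe with vehicle and 100% = probe without protein; strong numbers were not always called active; many hits fall short of the cut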
MT1-MMP act inh: blockers of MT1-MMP proenzyme processing, primary screen, HT1080 RFP-PRO-GFP cells, GFP/RFP fluorescence; GFP/RFP ratio change, % at 20 µM; Matrix metalloproteinase-14 (Homo sapiens), P50281; 360,000 compounds, 0.061% hits; GFP/RFP ratio fluorescence, overnight; percent of plate control window, DMSO zero;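 active = GFP/RFP ratio change of at least 30% with cell ATP level not reduced by more than half and red fluorescence within 50% of control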; also: strong numbers were not always called active
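Assay system: RFP-PRO-GFP reporter HT1080 cells; read-out basis: GFP/RFP fluorescence ratio; benchmarks: DMSO wells and RFP-L50D-GFP cells; doses: 20 µM single dose, 1% DMSO; schedule: overnight cell settling, then overnight compound exposure, 37 °C, 5% CO2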
Rce1 inhib: yeast Rce1p protease inhibitors, primary screen, biochemical, fluorescence, cell-free homogeneous; CAAX prenyl protease 2 (Saccharomyces cerevisiae (strain ATCC 204508 / S288c)), Q03530; calls only; yeast membranes, quenched prenylated peptide cleavage fluorescence; 290,000 compounds, 0.27% hits;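 active = fall in fluorescence gain of 50% or more versus controls, with final raw signal at or below 3038400; inconclusive = same 50% fall but final raw signal above 3038400; inactive = fall in fluorescence gain under 50%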;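 also: plate controls were neutral control wells for no effect and wells lacking membranes for full effect; tested at 10 µM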
Target sequence (Q03530 whole entry, looked up): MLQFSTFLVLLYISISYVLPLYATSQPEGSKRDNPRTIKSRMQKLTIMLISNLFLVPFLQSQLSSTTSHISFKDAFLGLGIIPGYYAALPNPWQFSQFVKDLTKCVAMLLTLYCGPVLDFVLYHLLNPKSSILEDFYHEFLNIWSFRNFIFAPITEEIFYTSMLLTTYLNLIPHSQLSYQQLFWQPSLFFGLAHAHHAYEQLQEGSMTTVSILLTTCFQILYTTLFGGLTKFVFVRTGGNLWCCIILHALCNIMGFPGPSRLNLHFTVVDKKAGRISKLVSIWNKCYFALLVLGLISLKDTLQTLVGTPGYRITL
CSC inhib: cancer stem cell viability inhibitors, primary screen, luminescence; inhibition, % at 7.5 µM; 300,000 compounds, 1.1% hits; cancer stem cell-like cells viability;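 active = mean at 75% or more and at least half the replicates too; inconclusive = mean and replicates disagree; tested in HMLE shEcad cells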;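 also: 0% = median of negative and 100% = median of positive control wells; the first replicate is given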
eIF4H inh retest: recorded beside eIF4H inh, whose call it bears; inhibition, %; compound at 20 µM; confirmation average;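 mean of two retest wells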
PABP polyA inh retest: also measured in PABP polyA inh; calls as there; inhibition, %; compound at 20 µM; confirmation repeats;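 mean of two retest wells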
MT1-MMP act inh RFP: recorded beside MT1-MMP act inh, whose call it bears; RFP signal change, %; measured here: RFP expression control read;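 0 = vehicle wells; hits needed this value within 50% of zero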
Active calls of the source: *; i = inactive; ? = inconclusive; . = no result given; [ ] = another dose, or the depositor's remark.

SMILES	Yeast UUG start	PABP polyA inh	HIV Env fusion	eIF4H inh	MT1-MMP act inh	MT1-MMP act inh RFP	Rce1 inhib	CSC inhib	others
N#CCC1c2ccccc2CCN1C(=O)Nc1ccc(Cl)cc1 (stereo not given)	-8	-2	3	-2	9	1	i	-6
COc1cc(OC)cc(C(C(=O)NCc2ccccc2)N(Cc2ccco2)C(=O)c2ccno2)c1 (stereo not given)	-8	31	.	40	-11	3	i	-1
COc1ccccc1N/C(=N/S(=O)(=O)c1ccc(C)cc1)c1ccccc1	6	12	11	-2	2	3	i	-19
O=C1/C(=C\c2cccc(O)c2O)SC(=S)N1Cc1ccccc1	-18	9	11	3	12	11	i	86*
Cc1cccn2c(=O)c(/C=C(\C#N)C(=O)NCc3ccccc3)c(N3CCC(C(N)=O)CC3)nc12	17	-7	3	1	-1	0	i	-15
O=C(CN1C(=O)C2C3C=CC(C3)C2C1=O)NCc1ccco1 (stereo not given)	1	0	.	4	3	5	i	-2
COc1ccc2[nH]c3c(c2c1)CCN1C(=O)C(CC(=O)NCCN2CCOCC2)C[C@H](C(=O)N2CCCCC2)[C@@]31CCc1ccccc1 (stereo not given in full)	5	.	14	.	-4	-1	.	.
CC(=O)Nc1sc(N/N=C/c2ccc(N(C)C)cc2)nc1-c1ccc(C)cc1	-17	-6	-3	2	11	-4	i	.
COc1ccccc1CNC(=O)C1=C(C)C(=O)OC12CCC(C)CC2 (stereo not given)	-9	13	-5	-2	-4	-1	i	-8
CCOCCCn1c(=N)c(C(=O)NCCN2CCOCC2)cc2c(=O)n3cccc(C)c3nc21	-5	.	-28	.	6	6	.	.
Cc1ccc(Cl)cc1NC(=O)CCCN1C(=O)c2cccnc2C1=O	.	?	1	-3	8	3	i	-7
CC1C(C)N(C(=O)CCl)c2ccccc2N1C(=O)CCl (stereo not given)	-10	.	16	.	1	2	.	.
CSCC[C@H](NC(=O)C1CCN(S(=O)(=O)c2ccc(C)cc2)CC1)C(=O)NC1CCS(=O)(=O)C1 (stereo not given in full)	.	9	-28	9	-4	-1	i	-2
COc1ccccc1C1C(C(=O)c2cc3ccccc3o2)=C(O)C(=O)N1CCN1CCOCC1 (stereo not given)	-10	11	-58	2	-2	6	i	-2
O=C1c2ccccc2NC(c2ccc(-c3cccc([N+](=O)[O-])c3)o2)N1O (stereo not given)	.	-3	58*	13	-1	-2	i	33
CC1(C)OC2OC(C3COC(=O)O3)C(OC(=O)c3ccccc3)C2O1 (stereo not given)	-5	.	-1	.	0	3	.	.
O=C(Nc1ccc(F)cc1F)c1cccn1-c1ncc(C(F)(F)F)cc1Cl	-2	2	.	-11	5	5	i	-6
Cc1ccccc1Oc1ccc2c(c1)[C@@H]1C[C@H](N(C)C(=O)c3cccnc3)[C@H]([C@H](C)O)C(=O)N1CC2	4	.	-30	.	-4	-1	.	.
CC1(C(=O)NS(=O)(=O)c2ccccc2C(F)(F)F)CCN1C(=O)C1CCCCC1 (stereo not given)	-10	.	-16	.	1	2	.	.
N#Cc1ccc(/C=N/NC(=O)c2ccccc2F)cc1	.	0	6	-5	2	1	i	-9
O=C(CNC(=S)N(Cc1ccc(F)cc1)C1CCCCC1)NCC1CCCO1 (stereo not given)	.	12	-12	-3	1	2	i	-11
Cc1nc2ccc(NC(=S)NC3CC3)cc2nc1C	-37	2	5	-8	2	7	i	-9
Cc1cc(C)n2cc(CSc3nnnn3-c3ccccc3)nc2n1	-18	8	-15	-6	4	0	i	-8
O=C(Nc1nnc(SCc2ccc(F)cc2)s1)c1cccnc1Cl	-17	30	-16	-6	7	0	i	6
O=C(CSc1ccccc1)N1CCN(c2ccccn2)CC1	.	-11	-29	-8	-3	0	.	-19
CCOc1ccccc1N1CCN(CC(=O)Nc2nc(C)c(C(=O)N(C)C)s2)CC1	-9	-12	9	17	2	2	i	-18
COc1ccc2c(c1)CC(C(=O)Nc1ccc(Cl)cc1)/C(=N/O)O2 (stereo not given)	-12	-3	-8	-3	0	-5	i	-3
CC1CCc2nn(CC(=O)NCCCN3CCCC3=O)cc2C1 (stereo not given)	-26	-4	-18	-7	1	5	i	4
COc1ccc(Cn2c(=O)[nH]c3cc(C(=O)NC4CCN(Cc5ccccc5)CC4)ccc32)cc1	-4	1	?	8	3	-11	i	0
Cc1cc(C)nc(N/N=C/c2ccccc2)n1	.	-6	.	4	-2	-1	i	-13

In the list so far, eleven contain sulfur:
SMILES	Yeast UUG start	PABP polyA inh	HIV Env fusion	eIF4H inh	MT1-MMP act inh	MT1-MMP act inh RFP	Rce1 inhib	CSC inhib	others
COc1ccccc1N/C(=N/S(=O)(=O)c1ccc(C)cc1)c1ccccc1	6	12	11	-2	2	3	i	-19
O=C1/C(=C\c2cccc(O)c2O)SC(=S)N1Cc1ccccc1	-18	9	11	3	12	11	i	86*
CC(=O)Nc1sc(N/N=C/c2ccc(N(C)C)cc2)nc1-c1ccc(C)cc1	-17	-6	-3	2	11	-4	i	.
CSCC[C@H](NC(=O)C1CCN(S(=O)(=O)c2ccc(C)cc2)CC1)C(=O)NC1CCS(=O)(=O)C1 (stereo not given in full)	.	9	-28	9	-4	-1	i	-2
CC1(C(=O)NS(=O)(=O)c2ccccc2C(F)(F)F)CCN1C(=O)C1CCCCC1 (stereo not given)	-10	.	-16	.	1	2	.	.
O=C(CNC(=S)N(Cc1ccc(F)cc1)C1CCCCC1)NCC1CCCO1 (stereo not given)	.	12	-12	-3	1	2	i	-11
Cc1nc2ccc(NC(=S)NC3CC3)cc2nc1C	-37	2	5	-8	2	7	i	-9
Cc1cc(C)n2cc(CSc3nnnn3-c3ccccc3)nc2n1	-18	8	-15	-6	4	0	i	-8
O=C(Nc1nnc(SCc2ccc(F)cc2)s1)c1cccnc1Cl	-17	30	-16	-6	7	0	i	6
O=C(CSc1ccccc1)N1CCN(c2ccccn2)CC1	.	-11	-29	-8	-3	0	.	-19
CCOc1ccccc1N1CCN(CC(=O)Nc2nc(C)c(C(=O)N(C)C)s2)CC1	-9	-12	9	17	2	2	i	-18

The listing continues.
SMILES	Yeast UUG start	PABP polyA inh	HIV Env fusion	eIF4H inh	MT1-MMP act inh	MT1-MMP act inh RFP	Rce1 inhib	CSC inhib	others
Cc1nc(SCC(=O)Nc2cccc(C(=O)O)c2)n[nH]1	1	0	-7	5	2	4	i	-4
Cc1ccc(S(=O)(=O)N(Cc2n[nH]c(=S)n2-c2ccccc2)c2ccccc2)cc1	.	-1	-124	-4	0	-1	i	-6
CCc1nc2cccnc2n1-c1ccc(C(=O)O)cc1	-19	74*	-12	92*	-7	3	i	0	eIF4H inh retest=90*;PABP polyA inh retest=88*
Cc1cc(N/N=C\c2ccc(Br)cc2)nc(-n2nc(C)cc2C)n1	.	-16	16	1	9	-6	i	21
Cc1occc1-c1nnc(SCc2nnc(-c3ccc(Cl)cc3)o2)n1C	-7	.	-63	.	1	-2	i	1
CCn1c(SCC(=O)c2cccs2)nnc1-c1cccs1	-13	-3	.	8	-7	0	i	-6
COc1ccc(CC(=O)Nc2cc(S(=O)(=O)N3CCCCC3)ccc2OC(C)C)cc1OC	3	.	?	.	-1	-5	.	.
CCN1CCN(c2ccc(NC(=O)c3ccc4c(c3)OCCO4)cc2C)CC1	-25	.	-55	.	-4	-1	.	.
Cc1c(Br)cc(C(=O)O)c(C)c1C	6	7	-174	6	4	3	i	-15
O=C(C1=C[C@H](c2csc3ccccc23)C[C@H](OCc2ccc(CO)cc2)O1)N1CCOCC1	-10	-4	7	-4	0	1	i	-24
C[C@H](CO)N1C[C@H](C)[C@H](CN(C)Cc2ccncc2)OCc2ccccc2-c2c(n(C)c3ccccc23)C1=O	5	.	23[16.7 µM]	.	-3	4	.	.
N#Cc1c2n(c(=S)n(-c3ccccn3)c1=O)CCCCC2	-19	8	-29	8	-3	4	i	6
COC(=O)C(C)Oc1ccc2cc(-c3ccccc3)c(=O)oc2c1 (stereo not given)	-1	10	-12	-12	4	1	i	-1
COc1cccc2cc(C(=O)C3=C(O)C(=O)N(CCN4CCOCC4)C3c3ccc(Cl)cc3)oc12 (stereo not given)	.	1	-4	3	-2	1	i	5
CCSc1nnc(NC(=O)C(Cc2ccccc2)n2cccc2)s1 (stereo not given)	-6	-1	5	-2	1	-1	i	-8
COC(=O)c1cc(-c2cccc([N+](=O)[O-])c2)c2c(=O)[nH]c(=O)n(C)c2n1	-12	11	4	-9	-3	2	i	2
Clc1ncccc1OCc1ccccc1	.	.	0	.	0	5	i	-8
Cc1cn(C(=O)CN2C(=O)c3ccccc3C2=O)c(C)n1	-12	4	.	-9	-1	-1	i	.
Cc1cc(-c2cccs2)c2c(n1)sc1c(=O)[nH]c(=O)[nH]c12	-10	7	29	-15	-3	-2	i	-11
N#Cc1nc(COc2ccccc2Cl)oc1NCc1cccnc1	-21	1	-5	7	-1	0	i	-8
C(=N\n1cnnc1)/c1ccc(OCc2cccc3ccccc23)cc1	-6	-4	.	-10	-2	-5	i	0
COc1ccccc1OCCC(=O)OCC(=O)Nc1cc(S(=O)(=O)N2CCOCC2)ccc1Cl	4	7	21	-10	-3	-2	i	-3
COc1ccc(-c2nc3c(c(=O)[nH]c(=O)n3Cc3ccccc3)n2Cc2ccccc2)cc1	-10	-3	-84	-2	-4	-14	i	7
CCC(C)NC(=S)N1CCN(Cc2ccc3c(c2)OCO3)CC1 (stereo not given)	.	-3	-6	3	1	2	i	5
CCN(CC)CC(=O)Nc1nc(-c2ccc(Cl)cc2)cs1	-5	1	.	-5	0	-1	i	-4
CC(C)COC(=O)OCN1C(=O)CN(CCN2CC(=O)N(COC(=O)OCC(C)C)C(=O)C2)CC1=O	-21	.	21	.	0	1	.	-7
CCc1cccc2c(C#N)cn(CCOc3ccccc3OC)c12	-7	-4	-38	-11	-4	-8	i	11
CCN1CCN(c2cc(-c3ccccc3)nc3cc(-c4cccc(F)c4)nn23)CC1	4	-12	.	2	-11	-13	i	?
O=C(COC(=O)c1c(Cl)ccc(Cl)c1Cl)NCC1CCCO1 (stereo not given)	1	.	.	.	1	-3	.	3
COc1ccc(OC)c2[nH]c(=O)c(CCNC(=O)C(=O)c3c(C)[nH]c4ccccc34)cc12	-3	1	29	2	3	5	i	-4
C#CCOCCOCCOCCNc1nc(N2CCN(C(=O)[C@H](CCC(=O)O)n3cc(C(N)CC(C)C)nn3)CC2)nc(N2CCN(C(=O)[C@H](CCC(=O)O)n3cc(C(N)[C@H](C)CC)nn3)CC2)n1 (stereo not given in full)	55	19	.	-16	0	4	i	1
